Ecoli growth = blocks Escherichia coli growth; OD600, 23 h; stronger effect = lower value; OD600 absorbance (test concentration not listed); hit rate 0.21% among 330,000;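 active = OD600 absorbance below the run mean of sample wells minus 3.6 SD, in any replicate, cut at about 0.56 in these data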;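 also: stock transfer was 300 nL into about 60 µL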
ALR inh = blocks human ALR sulfhydryl oxidase activity; P55789; AID 485317; inhibition, % (no concentration beside the values); purified ALR, DTT oxidation, H2O2 HRP-luminol luminescence; hit rate 3.8% among 290,000;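 active = mean and each replicate at 75% or more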;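 also: stock transfer was 7.5 nL into about 7.5 µL; 0% = neutral wells and 100% = wells with inactivated enzyme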
B2AR ag = human beta-2 adrenergic receptor agonism by FAP; P07550; response, % (concentration not given with the values); hit rate 0.43% among 340,000; AID 504454; Am2.2-beta2AR cells, FAP receptor internalization, flow cytometry; reference of the scale not given here;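 active = response above a set limit, near 3 SD of response in nonfluorescent compounds, cut at about 42% in these data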;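 also: stock transfer was 100 nL into about 11 µL; a reference agonist was the positive control; negative values mostly stem from fluorescent compounds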
LANA-H2A inh = blocks KSHV LANA binding to histone H2A/H2B | AID 2629 | hit rate 0.6% among 320,000 | Q9QR71 | inhibition, % (test concentration not listed) | cell-free LANA-H2A/H2B peptide, fluorescence polarization; in the data active = inhibition mostly above about 10%, no sharp cut-off; inactive = mostly below about 6.7%;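 also: stock transfer was 7.5 nL into about 10 µL; 0% = median of vehicle wells and 100% = median of positive control wells; one replicate is shown; the record names a cut of 25% in any replicate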
Target sequence (Q9QR71 whole entry, looked up): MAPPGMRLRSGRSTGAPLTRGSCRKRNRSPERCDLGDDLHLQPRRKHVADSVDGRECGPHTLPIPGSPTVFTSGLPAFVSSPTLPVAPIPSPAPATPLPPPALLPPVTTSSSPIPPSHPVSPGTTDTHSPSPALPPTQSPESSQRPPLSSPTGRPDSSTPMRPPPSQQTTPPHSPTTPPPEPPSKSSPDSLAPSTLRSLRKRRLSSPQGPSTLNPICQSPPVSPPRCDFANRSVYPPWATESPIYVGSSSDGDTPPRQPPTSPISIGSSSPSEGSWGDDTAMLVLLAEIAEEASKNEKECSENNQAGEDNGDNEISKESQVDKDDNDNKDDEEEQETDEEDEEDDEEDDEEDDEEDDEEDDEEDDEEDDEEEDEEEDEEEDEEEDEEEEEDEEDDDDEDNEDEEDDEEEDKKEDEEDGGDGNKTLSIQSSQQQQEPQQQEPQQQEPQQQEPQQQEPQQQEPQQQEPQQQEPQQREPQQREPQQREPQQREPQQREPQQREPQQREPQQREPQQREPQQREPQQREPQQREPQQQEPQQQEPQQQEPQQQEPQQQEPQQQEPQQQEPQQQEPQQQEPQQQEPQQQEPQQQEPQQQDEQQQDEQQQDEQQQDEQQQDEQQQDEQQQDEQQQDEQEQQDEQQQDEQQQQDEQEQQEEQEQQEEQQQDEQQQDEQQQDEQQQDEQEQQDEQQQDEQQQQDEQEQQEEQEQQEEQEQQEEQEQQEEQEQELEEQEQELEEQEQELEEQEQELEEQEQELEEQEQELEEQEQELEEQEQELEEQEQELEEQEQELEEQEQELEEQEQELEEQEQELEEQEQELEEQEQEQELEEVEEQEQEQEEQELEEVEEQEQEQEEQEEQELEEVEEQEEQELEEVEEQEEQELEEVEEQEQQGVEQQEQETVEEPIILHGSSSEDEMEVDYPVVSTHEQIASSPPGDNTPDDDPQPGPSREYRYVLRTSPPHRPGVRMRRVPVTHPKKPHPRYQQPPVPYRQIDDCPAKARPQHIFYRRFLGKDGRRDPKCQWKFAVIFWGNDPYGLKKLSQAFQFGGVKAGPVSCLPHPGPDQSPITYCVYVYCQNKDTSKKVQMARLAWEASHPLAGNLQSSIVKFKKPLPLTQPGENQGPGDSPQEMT
UCH37 DUB inh = inhibitors of human deubiquitinating enzyme UCH37; purified proteasome/UCH37, Ub-AMC cleavage fluorescence; Q9Y5K5; hit rate 0.33% among 330,000; inhibition, % (concentration not given with the values);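 active = mean of two replicates above 20%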;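 also: 0% = compound-free wells with enzyme and 100% = wells lacking proteasome; stock transfer was 100 nL into about 20 µL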
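Schedule: 30 min plus 25 min, room temperature / Material: human UCH37 within purified proteasomes / Technique: AMC fluorescence intensity at 355/460 nm / Buffer or medium: pH 7.4 Tris-HCl (50 mM) with ovalbumin, ATP-MgCl2, DTT / Controls: wells without proteasome as full block, compound-free enzyme plus substrate as uninhibited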
FGF22 binding = binders of recombinant human FGF22 by thermal shift; Q9HCT0; SYPRO orange fluorescence; percent of sucrose octasulfate shift, DMSO zero; calls only at 9.99 µM; hit rate 1.5% among 340,000; AID 651658;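 active = melting point raised past a set limit in the mean and every replicate; three in four hits are not shown here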
HNF4A DNA FP = change in binding of human HNF4 alpha to DNA | HNF4a-FITC DNA binding, fluorescence polarization, 1 h | activity change, % at 10 µM | hit rate 0.3% among 360,000 | AID 1224865; in the data active = activity change above about 30%, passing the limit was not always enough;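 also: controls were the assay level and a saturating level of protein; the project sought stronger binding though the title names inhibitors; some compounds called inactive have numbers as strong as hits; positive values seem to mean higher polarization but the record does not say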
* hit, by the source's call; i = inactive; nt = no result given.

SMILES,Ecoli growth,ALR inh,B2AR ag,LANA-H2A inh,UCH37 DUB inh,FGF22 binding,HNF4A DNA FP
O=[N+]([O-])c1ccc(N2CCN(CCOCCO)CC2)c([N+](=O)[O-])c1,0.71,-4,-5,-0.5,6.2,i,1.0
COc1cc(/C=C2\SC(=O)N(CC(=O)Nc3cccc(C)c3)C2=O)ccc1OC(C)C(=O)O (centres undefined),0.72,7,1,-2.7,7.2,i,-2.5
COc1cccc(NC(=S)NCc2ccco2)c1,0.71,-2,0,8.7,6.2,nt,4.1
Cc1ccc(NC2CCCN(C(=O)CCN3CCOCC3)C2)cc1C (centres undefined),0.69,99*,-1,-5.1,1.4,i,-1.2
Cc1c(C(=O)Nc2ccc3c(c2)OCCO3)oc2ccc(Br)cc12,0.62,8,10,-0.6,0.4,i,-0.4
CCN(c1ccc(OCC(=O)OCC(=O)c2c(N)n(C)c(=O)n(C)c2=O)cc1)S(=O)(=O)c1ccccc1,0.66,4,5,4.0,1.7,i,2.3
O=C(c1ccc(O)cc1)c1ccc(C(=O)O)c(C(=O)O)c1,0.73,-5,-1,-5.8,8.2,nt,-2.5
CCOc1ccc(C(=O)Nc2cccc(-c3cc4ccccc4oc3=O)c2)cc1[N+](=O)[O-],0.7,1,-11,8.8,0.1,nt,-5.9
Cc1cc(N2CCCC2)nc(SCC(=O)c2ccccc2)n1,0.74,1,-12,-0.5,0.8,nt,-0.2
CC1CC(NC(=O)N(C)C)N(C)C(=O)N1 (centres undefined),0.73,2,-4,1.6,-0.1,i,0.9
O=C(c1ccc2c(c1)OCO2)C1CCCN(Cc2cn[nH]c2-c2cccc(F)c2)C1 (centres undefined),0.66,-7,9,-3.4,-2.5,i,-3.7
COC(=O)C1=CN(c2ccc(OC)cc2)C=C(C(=O)OC)C1c1ccc([N+](=O)[O-])cc1,0.7,-14,1,3.3,0.4,i,0.4
CCCS(=O)(=O)N1CCN(C(=O)c2cccs2)CC1,0.67,-4,-7,-1.1,0.7,nt,-4.1
CC(=O)N1CCc2cc(S(=O)(=O)N3CCc4ccccc4C3)ccc21,0.66,6,-4,0.8,0.6,nt,0.7
COc1ccc(NC(=O)COC(=O)C2CC2)c(OC)c1,0.71,0,-4,1.7,2.4,i,-2.3
CCn1c(C)nc2cc(C(=O)N/N=C/c3cccc(OC)c3O)ccc21,nt,22,6,-4.3,nt,i,0.2
CNC(=O)COc1ccccc1C(=O)Nc1ccc2c(c1)oc1ccccc12,0.7,0,-1,2.8,-217,nt,1.6
CC1=NN(CCC#N)C(=O)/C1=C/c1ccc(N(C)C)cc1,0.71,-1,1,-2.5,12,i,4.5
CCCS(=O)(=O)c1nc(S(=O)(=O)c2ccc(C)cc2)c(N2CCN(CC)CC2)s1,0.68,0,-1,6.7,1.4,i,0.7
CCn1cc(CN2CCC(n3nccc3NC(=O)c3cccc(F)c3)CC2)c(C)n1,0.66,-29,-11,3.8,-1.4,i,0.4
O=C(C1CC1)N1N=C(c2ccc(Br)cc2)CC1(O)C(F)(F)F (centres undefined),0.67,-1,2,-5.6,1.4,i,-2.8
COc1ccc(Br)cc1CNC(=O)CCc1nc(-c2ccccc2F)no1,0.76,5,-3,3.5,2.5,nt,0.9
Cc1c(C(=O)N2CCOCC2)oc2c1C(=O)CC(C)(C)C2,0.72,-14,4,-0.9,3.4,nt,-4.2
CN(C(=O)CSc1nnc(-c2ccccc2F)n1N)C1CCCCC1,0.68,-3,-13,0.5,-1.9,i,4.4
COc1ccccc1CNC(=O)Cn1c(=O)c2cccn2c2cccnc21,0.66,0,-23,-2.1,-9.6,i,-0.7
CN1C(=O)N(C)C(c2ccccc2Cl)C2=C1CC(C)(C)CC2=O (centres undefined),0.67,nt,5,-6.0,4.5,i,0.6
O=C(O)C(=Cc1ccccc1[N+](=O)[O-])c1ccccc1,0.64,nt,3,nt,2.6,i,-4.0
O=C(CSc1nncn1-c1ccccc1)Nc1ccc(F)cc1F,0.61,-8,-4,-3.2,-1.7,i,3.4
N#Cc1cccnc1N1CCN(C(=O)c2cccc3c2C(=O)c2ccc(Cl)cc2S3(=O)=O)CC1,0.69,1,15,-5.7,1.1,i,4.0
COC(=O)c1c(NC(=O)c2ccccc2)sc2c1CC(C)(C)OC2,0.74,-3,4,0.4,-54,nt,-0.4

Following part
SMILES,Ecoli growth,ALR inh,B2AR ag,LANA-H2A inh,UCH37 DUB inh,FGF22 binding,HNF4A DNA FP
CCc1ccc(OS(=O)(=O)c2cn(C)c(=O)n(C)c2=O)cc1,nt,-8,-10,-2.0,nt,i,3.2
Cc1ccc(S(=O)(=O)N(C)CC(=O)O/N=C(\N)c2cccc(Br)c2)cc1,0.63,-6,1,-3.1,2.5,i,1.7
COc1cccc(NC(=O)COC(=O)CCCC2=NS(=O)(=O)c3ccccc3N2)c1,0.63,-9,-5,-3.8,-0.6,i,-0.1
N#C/C(=C\c1ccc(-c2cccc(C(F)(F)F)c2)o1)C(=O)Nn1cnnc1,0.66,7,4,-2.0,19,nt,0.7
O=C(CCc1ccccc1)N=C1SC2CS(=O)(=O)CC2N1c1ccccc1F (centres undefined),0.69,-3,1,-5.2,2.6,i,5.2
COC(=O)c1sccc1NS(=O)(=O)c1ccc(F)cc1F,nt,nt,-1,1.9,nt,i,0.2
O=C(NCc1ccc(F)cc1)C1CCCN1C(=O)Nc1ccccc1 (centres undefined),0.67,-9,2,-1.9,-0.4,i,-3.3
COC(=O)c1ccccc1NC(=O)CSc1nc(O)c(-c2ccccc2)c(=O)[nH]1,0.71,42,12,0.1,8.7,i,-1.2
CNC(=S)N1CCN=C1Nc1nc(C)cc(C)n1,0.7,0,-4,1.3,1.5,i,-2.2
CC[n+]1c(/C=C/Nc2ccccc2)oc2ccc(OC)cc21,0.65,-5,-89,-11,-0.4,nt,30
CSc1ccccc1OCc1cc(C(=O)N2CCSCC2)no1,0.66,-2,-1,3.0,-1.0,i,1.4
COc1ccccc1NC(=S)NN1CCN(C)CC1,0.69,19,0,-6.9,1.8,i,2.0
CCC(C)c1ccccc1NC(=O)COC(=O)c1ccc(N2CCCC2)c([N+](=O)[O-])c1 (centres undefined),0.71,-11,-7,-1.4,5.9,i,-0.6
O=C(NNC(=O)c1cc(-c2ccncc2)nc2ccccc12)c1ccccc1F,0.63,-4,5,1.2,1.6,i,0.2
CCOC(=O)CN1C(=O)N[C@H](c2ccc(Br)cc2)C(C(C)=O)=C1C,nt,6,-3,-3.1,-0.2,i,0.0
O=C(CSc1nnc(CN2CCOCC2)n1-c1ccccc1)Nc1ccc(Cl)cc1,0.73,-3,4,3.7,1.7,nt,2.3
O=C(O)[C@H](Cc1ccccc1)NC(=O)N1CCOCC1,nt,-2,0,0.3,4.1,nt,0.9
CCOC(=O)N1CCC(NC(=O)C2CCN(C(=O)c3cc4sccc4n3CC)CC2)CC1,0.69,nt,-5,3.3,6.7,i,-3.9
COc1cc(CNC(=O)C2CCCN2S(=O)(=O)c2ccccc2)cc(OC)c1OC (centres undefined),0.66,-1,3,-1.7,3.0,i,0.3
COc1cc(CN2CCC(n3nccc3NC(=O)CCCc3ccccc3)CC2)ccc1F,0.7,-2,-2,4.6,5.3,i,8.3
CCCCN(C)C(=O)C1CCN(c2ccc(S(=O)(=O)N3CCOCC3)cc2[N+](=O)[O-])CC1,0.69,-14,42,-3.9,3.3,i,4.4
CCOn1c(=O)c(-c2cccc3ccccc23)[n+]([O-])c2ccccc21,0.71,0,-15,-0.1,8.3,nt,-0.5
O=S(=O)(c1ccc(OCC(O)CN2CCN(c3ccccc3Cl)CC2)cc1)N1CCOCC1 (centres undefined),0.69,-4,9,-7.4,1.8,nt,0.4
Cc1cccc(CCNS(=O)(=O)c2ccc3c(c2)n(C)c(=O)c(=O)n3C)c1,0.72,-19,-7,1.2,0.2,i,-4.6
Cc1ccccc1-n1c(SCC(=O)NCc2cccs2)nc2ccccc2c1=O,0.71,3,1,-4.7,4.6,nt,-0.3
N/C(=N\OC(=O)c1ccc(Br)cc1)c1ccncc1,0.72,-11,6,1.0,2.0,i,0.0
COc1cccc(NC(=O)N2CCCC2C(=O)NC2CCCC2)c1 (centres undefined),0.63,1,6,0.3,4.1,i,-0.2
Cc1ccc(S(=O)(=O)c2cn(C)c3cc(N4CCN(C)CC4)c(F)cc3c2=O)cc1,0.65,2,10,2.9,-80,i,2.3
O=C1NC(Nc2nccs2)(C(F)(F)F)C(=O)N1CCc1ccccc1 (centres undefined),0.69,1,11,-1.7,0.0,nt,1.0
CCOC(=O)C(C#N)=C1CCN(Cc2ccccc2)CC1,0.68,3,-4,9.0,0.5,i,-0.9

New compounds follow.
SMILES,Ecoli growth,ALR inh,B2AR ag,LANA-H2A inh,UCH37 DUB inh,FGF22 binding,HNF4A DNA FP
CN(C)c1ccc(C(=O)Nc2cccc(S(=O)(=O)NC3=NCCCCC3)c2)cc1,0.64,73,-2,1.7,6.0,i,1.8
Cc1c(C(=O)N(Cc2nccn2C)C(C)C)oc2c(F)cccc12,0.7,0,3,1.6,0.6,i,2.1
CCCOC1CCCN(C(=O)CCCn2nnnc2CN2CCOCC2)C1 (centres undefined),0.7,11,6,-5.2,0.3,i,1.6
CCN(CC)C(=O)CSc1nnc([C@@H](N)Cc2ccccc2)o1,0.65,-7,4,-5.1,1.9,nt,-2.1
CN(C(=O)c1cccc(NC(=O)Cc2ccc([N+](=O)[O-])cc2)c1)C1CC1,0.64,0,-4,1.9,1.0,i,0.1
COC(=O)c1ccc(CSc2ccc3nnc(-c4ccccn4)n3n2)o1,0.74,-12,-13,2.2,3.3,i,-0.5
CC/C(C)=C1\SC(N2CCN(c3cccc(C(F)(F)F)c3)CC2)=NC1=O,0.72,1,-2,-0.7,4.1,nt,-0.6
O=C(Nc1ccc(S(=O)(=O)Nc2ccccc2)cc1)c1ccc(CN2CCOCC2)cc1,0.71,-5,5,-2.9,6.2,i,0.1
O=C(O)Cn1nnnc1SCC(=O)Nc1ccc(F)cc1F,0.72,-5,4,1.9,2.5,i,-6.5
CCOC(=O)CS(=O)(=O)c1ccc(O)cc1,0.69,-2,0,-1.1,4.0,i,1.1
Cc1ccc2cc(CCNC(=O)c3cccc([N+](=O)[O-])c3)c(=O)[nH]c2c1,0.67,-2,-7,-2.6,4.4,i,0.1
CCOC(=O)c1cc2ccc3ccccc3c2oc1=O,0.68,-5,-1,0.4,i,i,-0.3
CC(=O)OCP(C)(=O)COC(C)=O,0.76,-11,-1,0.3,2.9,nt,-3.7
O=S(=O)(NCc1ccccn1)c1ccc(Cl)s1,0.64,-5,-1,1.5,-1.7,nt,-1.9
CCCc1cc(=O)n(-c2nc3ccccc3s2)[nH]1,0.69,0,2,5.2,3.0,i,-3.4
COc1ccc(CNc2ccc(N3CCN(C(C)=O)CC3)cc2)cc1OC,0.69,nt,-5,nt,1.3,i,2.5
CN(Cc1cnn(C)c1)Cc1nc(Cc2ccccc2Cl)no1,0.72,2,1,7.1,-1.1,i,1.2

Record cards, from the list above. Values in the order: Ecoli growth | ALR inh | B2AR ag | LANA-H2A inh | UCH37 DUB inh | FGF22 binding | HNF4A DNA FP
Record of O=C(Nc1ccc(S(=O)(=O)Nc2ccccc2)cc1)c1ccc(CN2CCOCC2)cc1 = 0.71 | -5 | 5 | -2.9 | 6.2 | i | 0.1
Record of CCN(CC)C(=O)CSc1nnc([C@@H](N)Cc2ccccc2)o1 = 0.65 | -7 | 4 | -5.1 | 1.9 | nt | -2.1
Record of CN(Cc1cnn(C)c1)Cc1nc(Cc2ccccc2Cl)no1 = 0.72 | 2 | 1 | 7.1 | -1.1 | i | 1.2
Record of CCCOC1CCCN(C(=O)CCCn2nnnc2CN2CCOCC2)C1 (centres undefined) = 0.7 | 11 | 6 | -5.2 | 0.3 | i | 1.6

Source: PubChem

An excerpt. The share of hits here may be higher or lower than overall.
